# RecA splice inh: blocks M. tuberculosis RecA intein splicing; inhibition, %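 (about 9 µM by stock and volumes)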; P9WHJ3; 290,000 compounds, 0.75% hits; cell-free RecA intein splicing, fluorescence; in the data active = inhibition above about 30%; inconclusive = no clear call, values can overlap the other calls;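 also: 0% = vehicle wells and 100% = reference inhibitor control wells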
# Target sequence (P9WHJ3 whole entry, looked up, canonical isoform): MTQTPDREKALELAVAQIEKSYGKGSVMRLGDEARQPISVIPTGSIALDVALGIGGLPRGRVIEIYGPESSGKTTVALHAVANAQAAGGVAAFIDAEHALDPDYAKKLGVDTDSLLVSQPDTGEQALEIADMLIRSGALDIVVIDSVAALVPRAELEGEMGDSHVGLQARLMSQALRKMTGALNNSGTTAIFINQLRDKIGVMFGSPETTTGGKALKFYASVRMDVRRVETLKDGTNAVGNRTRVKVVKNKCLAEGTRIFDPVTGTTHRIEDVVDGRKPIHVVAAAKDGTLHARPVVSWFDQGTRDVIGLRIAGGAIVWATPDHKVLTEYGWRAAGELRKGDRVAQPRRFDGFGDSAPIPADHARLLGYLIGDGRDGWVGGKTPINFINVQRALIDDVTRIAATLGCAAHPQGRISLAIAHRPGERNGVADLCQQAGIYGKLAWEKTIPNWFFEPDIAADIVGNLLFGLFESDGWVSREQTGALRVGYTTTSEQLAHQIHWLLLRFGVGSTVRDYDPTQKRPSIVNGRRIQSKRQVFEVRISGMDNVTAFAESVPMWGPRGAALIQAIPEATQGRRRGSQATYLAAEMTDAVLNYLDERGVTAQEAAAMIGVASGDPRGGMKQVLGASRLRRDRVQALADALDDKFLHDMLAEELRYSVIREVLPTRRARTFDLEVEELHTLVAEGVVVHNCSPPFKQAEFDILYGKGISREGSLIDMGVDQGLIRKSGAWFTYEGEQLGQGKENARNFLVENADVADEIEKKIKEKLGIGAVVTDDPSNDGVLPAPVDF
# Mtb growth: M. tuberculosis H37Rv growth inhibitors, H37Rv strain (AID 1626) | 220,000 compounds, 0.95% hits | inhibition, % at 10 µM, or IC50 in µM where a hit was titrated | M. tuberculosis H37Rv growth inhibition; higher % means a stronger effect;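 active = confirmed in a dose series; inconclusive = inhibition above 80% but not taken into the dose series; inactive = below 80% or under 30% at every dose of the series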;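 also: bacteria incubated seven days before Alamar blue readout; 0% = bacteria only wells and 100% = bacteria with antibiotic wells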
# Arbovirus inh: antivirals against arbovirus infection | arbovirus infection cell-based antiviral screen | inhibition, % at 10 µM | 200,000 compounds, 0.37% hits | AID 1251;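 active = inhibition from about 30%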;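 also: bluetongue infection of BSR cells; cell survival read as ATP light after 72 h; 0% = infected wells without compound and 100% = uninfected wells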
# YopH inh: blocks Yersinia enterocolitica YopH tyrosine phosphatase. fluorescence Ex485/Em525. inhibition, %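 (about 10 µM by stock and volumes)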. 140,000 compounds, 0.16% hits. AID 898;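 active = inhibition of 50% or more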;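 also: controls were vehicle for no effect and minimum signal wells for full effect; inactives centre near -20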
# Mtb betalactam: beta-lactam sensitization of Mtb H37Rv; inhibition, % at 25 µM; AID 434955; M. tuberculosis H37Rv growth with meropenem, percent inhibition; hits of this screen are not shown here; 330,000 compounds, 0.27% hits;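 active = about 74% or more and at least 40 points above the plate without the antibiotic, then above 30% in a dose series; inconclusive = first-round hits that could not be retested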;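 also: growth measured after seven days incubation then overnight dye step; 0% = bacteria only wells and 100% = bacteria with antibiotic; twin plates without the antibiotic show which effects depend on it; some results filed as inactive read as strong as hits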
# Arbovirus inh repeat: second read-out of Arbovirus inh, no call of its own (marks repeat the call); inhibition, %; measured here: 10K subset replicate screen; many hits read low in the repeat;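 first of two repeat runs on a subset; 0% = infected and 100% = uninfected wells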
# * hit, by the source's call; u = inconclusive; x = no result given. Not all compounds are listed (hit frequency here may not be typical).
SMILES,RecA splice inh,Mtb growth,Arbovirus inh,YopH inh,Mtb betalactam,others
Cn1c(Oc2ccc3c(c2)OCO3)nc2c1c(=O)n(Cc1ccccc1)c(=O)n2C,-1.5,-2%,4,-17,-7,
CSc1nc2nc(-c3cccs3)cc(C(F)(F)F)c2c(=O)[nH]1,-7.9,x,x,x,-1,
CC(C)c1ccc(/C=C2\SC(=S)N(CC(=O)NCCCN3CCOCC3)C2=O)cc1,1.8,x,x,x,-5,
O=C(c1cccc(C(=O)N2CCN(c3ccccc3F)CC2)c1)N1CCN(c2ccccc2F)CC1,0.7,6%,1,-22,18,Arbovirus inh repeat=7
O=C1NC(=O)N(CCNc2ncc(C(F)(F)F)cc2Cl)C(=O)C1Cc1ccc(Cl)cc1 (stereo unspecified),-3.7,-5%,27,x,1,
CCN(CC)CCNCC1C(=O)O[C@@H]2C[C@@]3(C)CCC[C@H](C)C3=C[C@H]12 (stereo partly specified),1.7,x,x,x,-3,
Cc1oc(CC(C)C)c(CN)c1C(=O)O,-1.4,-3%,10,-24,-7,
COC(=O)[C@H](C)NC(=O)N1CCC(Cc2ccccc2)CC1,0.7,x,x,x,2,
CC(Sc1nnc(-c2ccccc2Br)n1-c1cccc(C(F)(F)F)c1)C(N)=O (stereo unspecified),-0.5,5%,15,-48,-6,
CCCn1c2ccccc2c2cnn(CC(=O)O)c(=O)c21,-0.5,x,x,x,9,

# Arranged by SMILES length (rising): part of the list above.
SMILES,RecA splice inh,Mtb growth,Arbovirus inh,YopH inh,Mtb betalactam,others
Cn1c(Oc2ccc3c(c2)OCO3)nc2c1c(=O)n(Cc1ccccc1)c(=O)n2C,-1.5,-2%,4,-17,-7,
O=C1NC(=O)N(CCNc2ncc(C(F)(F)F)cc2Cl)C(=O)C1Cc1ccc(Cl)cc1 (stereo unspecified),-3.7,-5%,27,x,1,
O=C(c1cccc(C(=O)N2CCN(c3ccccc3F)CC2)c1)N1CCN(c2ccccc2F)CC1,0.7,6%,1,-22,18,Arbovirus inh repeat=7

# (more compounds)
SMILES,RecA splice inh,Mtb growth,Arbovirus inh,YopH inh,Mtb betalactam,others
S=C(NCCc1ccccc1)N1CCN(C2CCCCC2)CC1,-4.7,6%,-5,x,2,
COc1ccc(C(=O)N[C@H](C(=O)Nc2ccc(OC)nc2)C(C)C)cc1,5.8,-3%,-1,-27,-13,
COc1ccc(CCNC(=O)CC2Nc3ccccc3NC2=O)cc1OC (stereo unspecified),0.5,0%,6,-17,6,
Cc1cc(Nc2ccc(F)c(Cl)c2)n2ncnc2n1,-0.5,6%,-1,-34,-6,
CCOc1ccc(NC(=O)CCN2C(=S)NC(C)(C)CC2C)cc1 (stereo unspecified),-0.2,-13%,4,x,-3,
COC(=O)c1ccc(C2NC(=O)c3ccccc3O2)cc1 (stereo unspecified),1.0,x,x,x,6,
COc1ccc(-c2nc(-c3cccc(C)c3)nc(Cl)c2C#N)cc1,x,9%,6,-39,x,
COc1cc(C(=O)N2CCN(c3ccccc3)CC2)c([N+](=O)[O-])cc1OC,-1.8,4%,4,x,-3,
Cc1cc(C(=O)OCC(=O)c2cccs2)c2ccccc2n1,0.3,x,0,x,-11,
Nc1nc(Cl)nc2c1ncn2[C@@H]1O[C@H](CO)[C@@H](O)[C@H]1O,-1.5,u,-27,-40,99,
Cc1cc(F)ccc1S(=O)(=O)N1CCCOC1CNC(=O)C(=O)NCCCN1CCOCC1 (stereo unspecified),-2.4,x,x,x,-13,
O=C(COc1ccc(Cl)cc1)NCCCNC(=O)c1cccnc1,-7.6,x,x,x,-3,
CC(C)(C)OC(=O)N/N=C/c1cccn1-c1ccc([N+](=O)[O-])cc1,4.4,-1%,x,x,-4,
O=C(c1cccnc1)c1cc2ccccc2[nH]1,-2.0,0%,-10,-14,-4,
COc1ccccc1C(=O)Nc1nc2cc3c(cc2s1)OCCO3,-2.4,19%,-7,x,-1,
CCCCc1nc2cc(C(=O)N3CCN(c4cnccn4)CC3)ccc2o1,0.2,x,x,x,-1,
CCN(CCNC(=O)CN1CCN(Cc2ccc(Cl)cc2)C1=O)c1ccccc1,3.0,8%,-10,-5,-6,
COc1ccc(-c2nnc(SCCc3ccccc3)n2N)cc1,0.7,5%,4,-11,-6,
Cc1ncoc1C(=O)NCCC(c1ccccc1)c1ccccc1,2.9,-2%,-4,x,1,
CCCCC(=O)NC(=S)NNC(=O)CC,-3.4,2%,-4,-8,-8,
COc1ccccc1NS(=O)(=O)c1cc(C(=O)N2CCN(C/C=C/c3ccccc3)CC2)ccc1C,3.9,x,x,x,-5,
COc1ccc(C)cc1S(=O)(=O)N(C)CC(=O)NC1CCCCC1,-0.7,1%,2,-25,-2,
COc1ccc2nc(NC(=O)C3CCCN(S(=O)(=O)c4c(C)noc4C)C3)sc2c1 (stereo unspecified),-1.3,5%,2,-12,2,
Nc1nnc(Sc2ncccc2[N+](=O)[O-])s1,-6.0,9.6µM*,8,x,100,
COc1cc(/C=N/N=C(/N)c2nonc2N)cc(Br)c1OCc1cccc(C)c1,0.3,5%,-14,-18,84,
CCn1cc([N+](=O)[O-])c(C(=O)Nc2cc(C)on2)n1,-12,-10%,7,-21,-11,
CC(=O)Nc1cccc(C(=O)OCC(=O)Nc2ccc(Cl)cn2)c1,-0.9,x,x,x,-1,
Cn1c(=O)c2ccccc2n(CC(=O)NC2CCCCC2)c1=O,-1.5,x,x,x,-1,
Clc1ccccc1C(c1nnnn1Cc1ccco1)N1CCN(Cc2ccco2)CC1 (stereo unspecified),x,-5%,5,-21,1,
O=[N+]([O-])c1cc(C(F)(F)F)ccc1NC1CCN(Cc2ccccc2)C1 (stereo unspecified),6.7,x,x,x,2,
Cc1cc2c(=O)oc(-c3ccccc3Br)nc2s1,18,-3%,x,x,x,
O=C(O/N=C1\CCCc2ccccc21)c1ccc(F)cc1,0.1,8%,-6,-9,8,
CCOc1ccc(NS(=O)(=O)c2ccc3[nH]cc(C(=O)NCCOC)c(=O)c3c2)cc1,1.4,x,4,-50,18,
O=C(CSc1nc2[nH]ncc2c(=O)n1-c1ccccc1Br)NCc1ccco1,2.6,-11%,2,-26,1,
CC1(C)Cc2[nH]c(=S)c(C#N)cc2CO1,-1.5,7%,1,0,-3,
COc1cc(OC)c(/C=N/NC(=O)c2ccncc2)cc1Br,-1.7,u,0,x,97,
CCOc1ccc(CC(=O)Nc2c(C(=O)Nc3ccccc3)oc3ccccc23)cc1OCC,x,-12%,-15,-20,-4,
Cc1ccc(S(=O)(=O)NC(=NC(C)C(=O)O)c2ccccc2)cc1 (stereo unspecified),-1.0,-10%,2,-44,3,
Cc1oc2cc(O)ccc2c(=O)c1-c1cnn(-c2ccccc2)c1,-1.3,-4%,1,0,-7,
COc1cc2c(cc1Cl)C(=O)C(F)(c1ccccc1)C(=O)N2 (stereo unspecified),3.7,2%,x,x,5,

# Compounds listed so far containing a furan ring, fused or not (4):
SMILES,RecA splice inh,Mtb growth,Arbovirus inh,YopH inh,Mtb betalactam,others
Cc1oc(CC(C)C)c(CN)c1C(=O)O,-1.4,-3%,10,-24,-7,
Clc1ccccc1C(c1nnnn1Cc1ccco1)N1CCN(Cc2ccco2)CC1 (stereo unspecified),x,-5%,5,-21,1,
O=C(CSc1nc2[nH]ncc2c(=O)n1-c1ccccc1Br)NCc1ccco1,2.6,-11%,2,-26,1,
CCOc1ccc(CC(=O)Nc2c(C(=O)Nc3ccccc3)oc3ccccc23)cc1OCC,x,-12%,-15,-20,-4,

# More structures:
SMILES,RecA splice inh,Mtb growth,Arbovirus inh,YopH inh,Mtb betalactam,others
Cc1ccc2c(c1C)NC(C)CC2C (stereo unspecified),1.3,-3%,-2,-17,-10,
O=C1CC(c2nc3ccccc3[nH]2)CN1Cc1ccccc1 (stereo unspecified),6.1,-4%,-6,-20,-2,Arbovirus inh repeat=5
N#Cc1c(/N=C/c2ccc(Br)s2)sc2c1CCC2,x,x,-9,-14,x,
CCn1c(SCC(=O)c2ccc(O)c(O)c2)nnc1-c1ccc(C)cc1,0.0,-1%,-14,-46,-7,
NS(=O)(=O)c1ccc(CCNC(=O)c2ccc(Br)s2)cc1,0.2,10%,-4,x,-4,
CCOC(=O)C1CCN(C(=O)CN(c2ccc3c(c2)OCCO3)S(C)(=O)=O)CC1,-1.6,-12%,6,-27,0,
O=C(COC(=O)c1ccc(Cl)c(S(=O)(=O)N2CCOCC2)c1)NCc1ccco1,7.0,x,x,x,-7,
CC1CCCN(C(=O)c2cc3ccccc3cc2O)C1 (stereo unspecified),-3.0,x,x,x,-10,
Cc1ccc2oc(C(=O)Nc3ccc(S(=O)(=O)Nc4ncccn4)cc3)c(C)c2c1,-2.1,x,x,x,-4,
Cc1c(Cl)cn2c(=O)cc(CN3CCN(c4ccccc4)CC3)nc2c1Cl,-0.6,10%,1,x,-4,
CSc1cccc(NC(=O)CCn2c(=O)c3cccn3c3cccnc32)c1,-1.4,x,x,x,5,
O=c1c(-c2ccc(F)cc2)coc2cc(O)ccc12,1.3,47%,9,-39,97,
CCC(=O)N1COC[C@@H]1Cc1ccccc1,2.1,21%,-1,-25,-4,
CN(C)S(=O)(=O)c1ccc(C(=O)N2CCN(S(=O)(=O)c3cccs3)CC2)cc1,-8.1,3%,-1,x,-3,
COc1ccc(S(=O)(=O)NCc2ccccn2)cc1NC(=O)c1ccccc1F,-1.1,x,x,x,-6,
COc1ccc(NC(=O)Nc2ccc(N3CCCC3=O)cc2)cc1OC,0.1,11%,9,-30,4,Arbovirus inh repeat=8
C/C(=N\NC(=O)Cc1ccc(Cl)cc1)c1ccccn1,2.1,x,-16,15,99,
CC(=O)Nc1ccc2nc(NC(=O)c3cccs3)sc2c1,-1.6,-2%,x,x,85,
NS(=O)(=O)c1ccc(CNC(=S)NC2CCCCC2)cc1,0.0,-7%,x,x,0,
O=C(NC1CCCCC1)c1cc2cc(Br)ccc2o1,1.3,x,x,x,9,
CCn1c(C2CCN(Cc3ccccc3)CC2)n[nH]c1=S,-2.3,6%,-6,x,4,
COc1ccc(NC(=O)c2cnc(SC)nc2)cc1,-1.4,x,x,x,100,
CN(CCOc1ccccc1)C(=O)C1CCC(=O)N(CCCN2CCCC2=O)C1 (stereo unspecified),-1.0,x,x,x,-5,
Cc1ncsc1CCC(=O)N1CCCC(C(=O)c2cccc(Cl)c2)C1 (stereo unspecified),4.1,2%,3,x,4,
NC(=O)CC(NC(=O)Cc1ccc(Br)cc1)c1ccc(N2CCC(Cc3ccccc3)CC2)c([N+](=O)[O-])c1 (stereo unspecified),-0.7,11%,x,x,59,
CCCn1c(Sc2nnnn2-c2ccccc2)n[nH]c1=O,x,-8%,3,-43,10,
COC(=O)C1C(=O)NCC1c1ccc(C)cc1 (stereo unspecified),-1.5,8%,5,-13,-8,
COc1cccc(Nc2ccc(C(=O)O)cc2N)c1,6.6,x,x,x,5,
COc1ccccc1/C=C/CN1CCC(CO)(Cc2ccccc2)CC1,1.9,1%,-19,x,-10,
CC1=NN(c2nc3ccccc3s2)C(O)(C(F)(F)F)C1 (stereo unspecified),-0.1,-1%,x,x,55,
CCSc1nnc(NC(=O)CC(C)C)s1,-0.8,-1%,9,x,-1,
CN(CC(=O)N(CCO)Cc1ccccc1)S(=O)(=O)c1ccc2c(c1)c(=O)n(C)c(=O)n2C,-0.6,x,x,x,-2,
Cc1cc(C)nc(NC(=O)CSc2nccc(C)n2)n1,-2.2,-3%,8,x,1,
CCOc1ccc(S(=O)(=O)NCc2ccccc2OC)cc1,1.3,12%,5,x,-5,
COc1ccc(COC(=O)N/N=C/c2cccs2)cc1,5.7,x,x,x,10,
Nc1c(N2CCCC2)cc(Cl)c2nonc12,70*,-5%,-2,9,-18,
Cc1cccc(NC(=O)c2nc[nH]c2C(=O)N[C@@H](CC(C)C)C(=O)OCc2ccccc2)c1,1.1,23µM*,x,x,x,
CC(C)COc1ccc(S(=O)(=O)NNC(=O)c2cc3ccccc3o2)cc1,-0.2,-2%,16,-28,1,
O=C(CSc1nc2[nH]ncc2c(=O)[nH]1)Nc1ccc(F)cc1,-1.7,x,x,x,-5,
CCOc1ccccc1CNCCc1ccc2c(c1)OCO2,-0.9,x,x,x,2,
COC(=O)c1cccc(NS(=O)(=O)c2ccc(OC)c(OC)c2)c1C,0.2,-10%,7,13,-7,
O=C(CSc1nc2c(c(=O)n1-c1ccc(Cl)cc1)SCC2)NCC1CCCO1 (stereo unspecified),-1.2,x,3,12,-3,
COc1ccccc1OCc1ccc(C(=O)Nc2ccc(Cl)cn2)o1,2.0,-1%,-7,x,3,
COC(=O)c1ccc(/C=N/Nc2nc(N3CCCCC3)nc(N3CCCCC3)n2)cc1,-1.7,19%,-2,x,25,
Cc1cc(C)n(C(=O)CSc2nnc(SCC(=O)n3nc(C)cc3C)s2)n1,1.6,-23%,10,-25,-7,
COc1cccc(C(=O)CSc2nnc(-c3cc(OC)cc(OC)c3)o2)c1,2.1,-9%,-11,-39,5,

# Screening results deposited in PubChem BioAssay by several laboratories.
